Bioassay records deposited in PubChem by National Center for Advancing Translational Sciences (NCATS).
Vaccinia Venus: vaccinia inhibition (Venus reporter); Vaccinia virus Venus reporter expression, fluorescence; Potency, µM (series often up to 36.5 µM), for the others: top-dose activity change, negative = inhibition, hits mostly inhibitors; hit rate 0.46% among 330,000; active means well fitted inhibition curve with a large enough effect; inconclusive means small, poorly fitted or top-dose-only effect; inactive means no such curve, though single readings can be large or run the other way; tested in A549 cells; further: nearly all actives have a fitted effect of over 30% in size; inactives centre near -10
Vaccinia mCherry: vaccinia inhibition (mCherry reporter); Potency, µM (titrated, usually from 36.5 µM), without a hit: at the highest dose activity change, negative = inhibition, actives largely listed as inhibitors; Vaccinia virus mCherry reporter infection, fluorescence; about a quarter of the inactives have no number; hit rate 0.63% among 310,000; AID 720579; active = well fitted inhibition curve with a large enough effect; inconclusive = small, poorly fitted or top-dose-only effect; inactive = no such curve, though single readings can be large or run the other way; tested in A549 cells; further: nearly all actives have a fitted effect of over 35% in size; inactives centre near -10
An asterisk follows results filed as active; i = inactive; ? = inconclusive; . = not tested or not shown; [ ] = remark or other dose. On the % scale 0 is the no-effect control and ±100 the full control effect; potency means the concentration at half of the fitted maximal effect.

Second line of a record – Vaccinia Venus	Vaccinia mCherry
- Cc1cc(C)c(NC(=O)C(=O)NCC(c2cccnc2)N2CCN(c3ccccc3F)CC2)c(C)c1 (configuration not stated)
  -14%	-13%
- COc1ccc(-c2nn(CCC#N)cc2/C=N/O)cc1OC
  4%	0%
- CSCCC(NC(=O)c1ccoc1C)C(=O)O (configuration not stated)
  -16%	-20%
- O=C(CCN1CCCCCC1)Nc1ccccc1F
  -7%	.
- COc1ccc(C(=O)Nc2ccccc2N2CCOCC2)cc1[N+](=O)[O-]
  -18%	i
- Cc1ccc(CNC(=O)CCc2ccc(S(=O)(=O)NC3CCCCC3)cc2)cc1
  ?	-10%
- CC(C)(C)c1ccc(OCCCC(=O)Nc2nnc(C3CC3)s2)cc1
  -25%	i
- Cc1cc(OC(=O)Cc2cccc3ccccc23)c([N+](=O)[O-])c(=O)[nH]1
  -4%	i
- COc1ccccc1N1CCN(C(c2ccccc2)c2nnnn2Cc2ccccc2)CC1 (configuration not stated)
  -19%	-17%
- COc1ccc(OC)c(CNC(=O)c2ccc3nc(C(C)C)oc3c2)c1
  -10%	-4%
- Cn1cc(C(=O)NCc2cccs2)c(=O)c2cc(S(=O)(=O)N3CCCC3)ccc21
  -5%	i
- CCC(=O)N1CCN(CCN=CC2=C(O)CC(c3ccc(OC)cc3)CC2=O)CC1 (configuration not stated)
  -3%	-9%
- CC(C)(C)c1ccc(S(=O)(=O)CCc2ccccn2)cc1
  -14%	.
- CC(Oc1ccc(C(=O)c2ccc(F)cc2)cc1)C(=O)N1CCOCC1 (configuration not stated)
  -5%	i
- CCCC(C)NC(=O)c1ccccc1SC (configuration not stated)
  -8%	i
- NC(=NC(=O)c1cccc(C(F)(F)F)c1)c1ccc(C(F)(F)F)cn1
  -12%	-21%
- O=c1[nH]c(CN2CCN(C/C=C/c3ccccc3)CC2)nc2cc(Cl)ccc12
  -22%	-29%
- COc1cc(CNC2CCCCCCC2)cc(Br)c1OCC#N
  -29%	-1%
- O=C(CCCN1C(=O)/C(=C\c2ccccc2)SC1=S)Nc1ccccc1O
  -23%	?
- O=[N+]([O-])c1ccc(OCn2cncn2)cc1
  -2%	i
- CC(C)(C)c1ccc(C2(C)NC(=O)N(CC(=O)Nc3ccc4c(c3)OCO4)C2=O)cc1 (configuration not stated)
  -23%	-26%
- CC(C)(C)c1ccc(C(=O)Nc2ccc(C(=O)N3CCCC3)cc2)cc1
  -25%	?
- COc1ccc2nc(NC(=O)CSC3=NCCS3)sc2c1
  ?	-8%[1.46 µM]
- O=C(Nc1nccs1)c1cnc2sccn2c1=O
  -7%	i
- Cc1cc(C)nc(Nc2nc(C(N)Cc3ccccc3)cs2)n1 (configuration not stated)
  ?	-28%
- CN(C)CC/C=C1/c2cc(F)ccc2Sc2ccc(Cl)cc21
  0%[7.34 µM]	-13%[7.34 µM]
- Cc1ccc(C)c2[nH]c(=O)c(CCNC(=O)c3cccs3)cc12
  0%	i
- Nc1cc(=O)[nH]c(SCCSc2ccc(F)cc2)n1
  -14%	-24%
- O=S(=O)(c1ccccc1)n1nc(-c2ccccc2)nc1NCc1ccco1
  -3%	.
- COc1ccc(CCn2ccc(O)c(Cc3ccc(Cl)cc3Cl)c2=O)cc1OC
  -16%	-16%

Entries of single compounds from above. Screens in order: Vaccinia Venus | Vaccinia mCherry
COc1ccccc1N1CCN(C(c2ccccc2)c2nnnn2Cc2ccccc2)CC1 (configuration not stated) is listed as -19% | -17%
CC(C)(C)c1ccc(C(=O)Nc2ccc(C(=O)N3CCCC3)cc2)cc1 is listed as -25% | ?
CC(C)(C)c1ccc(OCCCC(=O)Nc2nnc(C3CC3)s2)cc1 is listed as -25% | i
O=C(CCCN1C(=O)/C(=C\c2ccccc2)SC1=S)Nc1ccccc1O is listed as -23% | ?

The main list resumes, starting three compounds before the break.
Second line of a record – Vaccinia Venus	Vaccinia mCherry
- Nc1cc(=O)[nH]c(SCCSc2ccc(F)cc2)n1
  -14%	-24%
- O=S(=O)(c1ccccc1)n1nc(-c2ccccc2)nc1NCc1ccco1
  -3%	.
- COc1ccc(CCn2ccc(O)c(Cc3ccc(Cl)cc3Cl)c2=O)cc1OC
  -16%	-16%
- COc1ccc(CC(=O)NNC(=O)c2ccco2)cc1OC
  -10%	-16%
- Cc1cccc(CCNC(=O)c2nc(-c3ccc(Cl)cc3)n3c2CCCCC3)c1
  -6%	-4%
- CC(C)Oc1ccc(C(CC(=O)O)c2ccc(F)cc2)cc1 (configuration not stated)
  4%	17%
- O=C1[C@@H]2C(c3cccnc3)=NO[C@@H]2C(=O)N1c1ccc(Br)cc1
  -13%	-19%
- CN(C)/C=N/NC(=O)c1ccccc1
  0%	-1%
- CCOc1ccc(/C=N/NC(=O)C(C)N(c2ccc(OC)cc2)S(C)(=O)=O)cc1 (configuration not stated)
  -10%	-19%
- CCCc1ccc(C(=O)Cn2nc(C(=O)O)c3ccccc3c2=O)cc1
  ?	-19%
- O=c1cc(-c2ccc(Cl)cc2)[nH]c2ccccc12
  -25%[7.34 µM]	-24%[7.34 µM]
- CC(OC(=O)/C=C/c1ccco1)C(=O)NC1CCCCC1 (configuration not stated)
  -20%	-6%
- Cc1cccc(Oc2nc(-c3ccccn3)nc3ccccc23)c1
  ?	?
- N#Cc1c(SCC(=O)Nc2ccc(Cl)cc2Cl)sc2c(O)cc(=O)[nH]c12
  -1%	0%
- CCn1c(NC(=O)c2ccccc2)c(-c2cccs2)c(=O)c2ccccc21
  1%	?
- O=c1c2ccccc2nc(-c2ccccc2)n1/N=C/c1ccc([N+](=O)[O-])cc1
  -1%	-8%
- CCC(C(=O)NCCc1ccc(SC)cc1)n1nc(C)c2sc3ccccc3c2c1=O (configuration not stated)
  -21%	-20%
- Cc1c(NC(=O)Nc2ccc(Br)cc2F)sc2nc3n(c(=O)c12)CCC(C)CC3 (configuration not stated)
  -28%	?
- COc1ccc(C(CNC(=O)COc2ccc(F)cc2Cl)N2CCOCC2)cc1 (configuration not stated)
  -3%	-10%
- O=C(CSc1nnc(-c2ccc(O)cc2)n1Cc1ccccc1)NNC(=O)c1ccc(Br)cc1
  -4%	-12%
- COc1ccc(CNC(=O)OCCN2CCN(Cc3ccccc3)CCC2=O)cc1
  -7%	i
- C[C@H](CO)N1C[C@H](C)[C@@H](CN(C)S(=O)(=O)c2ccc(F)cc2)Oc2c(NC(=O)NC3CCCCC3)cccc2C1=O
  ?	?
- CCOC(=O)C1CCCN(C(=O)c2nn(-c3ccc(C)cc3)c(=O)n(C)c2=O)C1 (configuration not stated)
  -5%	0%
- CCN(Cc1cccc(S(=O)(=O)O)c1)c1ccc(C(=C2C=CC(=[N+](CC)Cc3cccc(S(=O)(=O)O)c3)C=C2)c2ccc(O)cc2S(=O)(=O)O)cc1
  -20%	10µM*
- CC1CN(c2nc(-c3ccccc3)nnc2-c2ccccc2)CC(C)O1 (configuration not stated)
  -16%	.
- CCOc1ccc(C(=O)Nc2ccccc2C(=O)O)cc1
  2%	3%
- CC(=O)O[C@@H]1CC[C@]2(C)C3CC[C@]4(C)C(=O)[C@H](O)CC4C3[C@@H](OC(C)=O)C[C@H]2C1 (some centres not stated)
  -2%	i
- COCCNC(=O)CS(=O)Cc1nc(-c2ccccc2C)oc1C (configuration not stated)
  13%	-9%
- NC(=O)N1OCC2COc3ccc4ccccc4c3C21 (configuration not stated)
  ?	.
- Cc1ccc(Nc2nc(-c3cccnc3)cs2)cc1Cl
  -25%	?
- COC(=O)C(Cc1ccccc1)NC(=O)CCNC(=O)c1ccc(Br)cc1 (configuration not stated)
  -7%	i
- CC[C@]12c3[nH]c4ccc(OC)cc4c3CCN1C(=O)C(CC(=O)NCCCN(C)C)C[C@@H]2C(=O)N1CCN(C(=O)c2ccco2)CC1 (some centres not stated)
  -8%	-16%
- COc1ccc(NS(=O)(=O)c2ccc(C)c(C(=O)N3CC(C)OC(C)C3)c2)cc1 (configuration not stated)
  -24%	i
- Cc1ccc(N(CCC#N)C(=O)COC(=O)c2ccccc2SCC(=O)N2CCCC2)cc1
  -10%	i
- O=C(Cn1cncn1)N1CCN(c2ccc(F)cc2)CC1
  -14%	-27%
- O=C(CCN1CCCCC1)c1ccc2c(c1)OCCO2
  ?	?
- COC(=O)c1ccc(CSc2ccc3nnc(-c4ccccn4)n3n2)o1
  -4%	-11%
- O=S(=O)(Nc1nc2n(n1)C(c1ccc(F)cc1)C=C(c1ccc(Cl)cc1)N2)c1ccccc1 (configuration not stated)
  -15%	-8%
- O=C(CCCNC(=O)c1ccc(Cl)cc1)Nc1ccc(Br)cc1
  -25%	-4%
- Cc1c(Br)c([N+](=O)[O-])nn1C(C)C(=O)Nc1c(C)n(C)n(-c2ccccc2)c1=O (configuration not stated)
  -11%	-6%
- N#Cc1ccc(-c2cccc3nccn23)cc1
  7%	-17%
- NC(=S)N/N=C1\CC(c2ccc3c(c2)OCCCO3)Oc2ccc(F)cc21 (configuration not stated)
  0%	-27%
- CN(C)CCNc1nc2sc3c(c2c(=O)n1-c1ccccc1)CCCCC3
  -23%	-1%
- CCCCN(C)C(=O)c1sc(=O)n(Cc2ccc(Cl)c(Cl)c2)c1C
  -6%	0%
- NNC(=O)COc1ncn(-c2ccccc2)n1
  1%	.
- Fc1ccc2[nH]c3c(N4CCSCC4)ncnc3c2c1
  ?	?
- CCc1c(Cl)nc(N)nc1Nc1ccccc1C
  -15%	-12%
- CCN1C(=O)[C@H]2[C@@H](c3ccc(C(F)(F)F)cc3)N[C@]3(CCCN(Cc4cccn4C)C3=O)[C@H]2C1=O
  ?	-18%
- O=C(Nc1nnc(-c2ccc(Cl)cc2)o1)c1ccccc1Br
  -8%	-25%
- COc1ccccc1CNc1nc(NC(C)C)nc2cc(-c3ccccc3)sc12
  ?	?
- O=C(Cc1cccs1)NCc1cccnc1
  -20%	-19%
- CCOC(=O)c1cc(-c2cc(OC)c(OC)c(OC)c2)nc2c1c(=O)[nH]c(=O)n2Cc1ccccc1
  2%	i
- COCCn1c(C)cc(C(=O)CSc2nc3ccccc3s2)c1C
  -29%	?
- COc1ccc(C(=O)Nc2ccc(Cl)cc2C(=O)NCCO)cc1
  -12%	-24%
- Cc1ccc(NC(=S)/N=C(\N)Nc2nc(C)c3cc(C)ccc3n2)c(C)c1
  ?	i
- Cc1ccc(-c2nc(CN(Cc3cnn(C)c3)C(C)C)c(C)o2)o1
  -16%	i
- O=C(CCC1N=C2c3ccccc3N=C(SCc3ccc(F)cc3)N2C1=O)NCc1ccc(F)cc1 (configuration not stated)
  -27%	?
- COc1ccc(C2=C(c3ccccc3)OC(OC)c3cc(F)ccc32)cn1 (configuration not stated)
  12%	31%[activator]
- N=C1C(c2ccccc2)=C(O)CN1c1ccccc1
  9%	-12%
- COCc1nnc(NC(=O)COc2ccc3c(c2)OCO3)s1
  2%	-10%
- COc1ccc(-c2nn(-c3ccccc3)cc2CN2CCCO2)c(F)c1
  -14%	i
- CN1CCN(c2cccc3c2S(=O)(=O)N[C@@H](Cc2ccccc2)CO3)CC1
  1%	i
- CCCN(CCC)CCCNC(=O)Cn1ncc2c3ccccc3n(Cc3ccccc3)c2c1=O
  -17%	-13%

In the list so far, four have a COOH group.
Second line of a record – Vaccinia Venus	Vaccinia mCherry
- CSCCC(NC(=O)c1ccoc1C)C(=O)O (configuration not stated)
  -16%	-20%
- CC(C)Oc1ccc(C(CC(=O)O)c2ccc(F)cc2)cc1 (configuration not stated)
  4%	17%
- CCCc1ccc(C(=O)Cn2nc(C(=O)O)c3ccccc3c2=O)cc1
  ?	-19%
- CCOc1ccc(C(=O)Nc2ccccc2C(=O)O)cc1
  2%	3%

Taken from the entries so far, 5 compounds:
Second line of a record – Vaccinia Venus	Vaccinia mCherry
- Cc1ccc(N(CCC#N)C(=O)COC(=O)c2ccccc2SCC(=O)N2CCCC2)cc1
  -10%	i
- O=C(Cn1cncn1)N1CCN(c2ccc(F)cc2)CC1
  -14%	-27%
- O=C(CCN1CCCCC1)c1ccc2c(c1)OCCO2
  ?	?
- COC(=O)c1ccc(CSc2ccc3nnc(-c4ccccn4)n3n2)o1
  -4%	-11%
- O=S(=O)(Nc1nc2n(n1)C(c1ccc(F)cc1)C=C(c1ccc(Cl)cc1)N2)c1ccccc1 (configuration not stated)
  -15%	-8%
